Screens from PubChem BioAssay.
ALR H2O2 inh: blocks human ALR sulfhydryl oxidase activity; P55789; inhibition, % (concentration not given with the values); purified ALR, DTT oxidation, H2O2 HRP-luminol luminescence; 3.8% of 290,000 active;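 active = mean and each replicate at 75% or more; inconclusive = only one of the two met; inactive = neither met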;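 note: stock transfer was 7.5 nL into about 7.5 µL; 0% = neutral wells and 100% = wells with inactivated enzyme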
Calb FLC: C. albicans growth modulation with fluconazole. C. albicans CaCi-2 (fluconazole-resistant clinical isolate) + fluconazole, Alamar Blue growth, 48 h. 0.57% of 300,000 active. growth inhibition, % (test concentration not listed). AID 1979;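 active = most replicates above 75%; inconclusive = exactly half above 75%; inactive = most below 75%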;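 note: all wells also contain fluconazole at 8 µg/ml as a sub-toxic cotreatment; 0% = median of DMSO wells and 100% = median of geldanamycin control wells; wells of about 8 µL received 7.5 nL stock; the first replicate is given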
HNF4A DNA FP: change in binding of human HNF4 alpha to DNA. 0.3% of 360,000 active. HNF4a-FITC DNA binding, fluorescence polarization, 1 h. activity change, % at 10 µM. P41235; in the data active = activity change above about 30%, passing the limit was not always enough;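 note: controls were the assay level and a saturating level of protein; the project sought stronger binding though the title names inhibitors; some compounds called inactive have numbers as strong as hits; positive values seem to mean higher polarization but the record does not say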
RanGTP-Imp inh: disruptors of Ran-importin-beta complex formation – biochemical, FRET, CFP-Ran, YFP-importin-beta, homogeneous, primary screen | cell-free CFP-Ran/YFP-importin-beta FRET ratio | inhibition, % (test concentration not listed) | 1.1% of 300,000 active | AID 2216;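 active = most replicates above 15%; inconclusive = exactly half above 15%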;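 note: 0% = DMSO wells and 100% = Ran loaded with GDP instead of GTP; wells of about 40 µL received 100 nL stock; the first replicate is given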
Beta2AR agonist: agonists of human beta-2 adrenergic receptor inducing internalization. Am2.2-beta2AR cells, FAP receptor internalization, flow cytometry; reference of the scale not given here. response, % (test concentration not listed). 0.43% of 340,000 active. AID 504454;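 active = response above a set limit, near 3 SD of response in nonfluorescent compounds, cut at about 42% in these data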;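 note: stock transfer was 100 nL into about 11 µL; a reference agonist was the positive control; negative values mostly stem from fluorescent compounds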
LANA-H2A inh: blocks KSHV LANA binding to histone H2A/H2B; Q9QR71; cell-free LANA-H2A/H2B peptide, fluorescence polarization; inhibition, % (test concentration not listed); 0.6% of 320,000 active; AID 2629; in the data active = inhibition mostly above about 10%, no sharp cut-off; inactive = mostly below about 6.7%;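 note: stock transfer was 7.5 nL into about 10 µL; 0% = median of vehicle wells and 100% = median of positive control wells; one replicate is shown; the record names a cut of 25% in any replicate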
Target sequence (Q9QR71 whole entry, looked up): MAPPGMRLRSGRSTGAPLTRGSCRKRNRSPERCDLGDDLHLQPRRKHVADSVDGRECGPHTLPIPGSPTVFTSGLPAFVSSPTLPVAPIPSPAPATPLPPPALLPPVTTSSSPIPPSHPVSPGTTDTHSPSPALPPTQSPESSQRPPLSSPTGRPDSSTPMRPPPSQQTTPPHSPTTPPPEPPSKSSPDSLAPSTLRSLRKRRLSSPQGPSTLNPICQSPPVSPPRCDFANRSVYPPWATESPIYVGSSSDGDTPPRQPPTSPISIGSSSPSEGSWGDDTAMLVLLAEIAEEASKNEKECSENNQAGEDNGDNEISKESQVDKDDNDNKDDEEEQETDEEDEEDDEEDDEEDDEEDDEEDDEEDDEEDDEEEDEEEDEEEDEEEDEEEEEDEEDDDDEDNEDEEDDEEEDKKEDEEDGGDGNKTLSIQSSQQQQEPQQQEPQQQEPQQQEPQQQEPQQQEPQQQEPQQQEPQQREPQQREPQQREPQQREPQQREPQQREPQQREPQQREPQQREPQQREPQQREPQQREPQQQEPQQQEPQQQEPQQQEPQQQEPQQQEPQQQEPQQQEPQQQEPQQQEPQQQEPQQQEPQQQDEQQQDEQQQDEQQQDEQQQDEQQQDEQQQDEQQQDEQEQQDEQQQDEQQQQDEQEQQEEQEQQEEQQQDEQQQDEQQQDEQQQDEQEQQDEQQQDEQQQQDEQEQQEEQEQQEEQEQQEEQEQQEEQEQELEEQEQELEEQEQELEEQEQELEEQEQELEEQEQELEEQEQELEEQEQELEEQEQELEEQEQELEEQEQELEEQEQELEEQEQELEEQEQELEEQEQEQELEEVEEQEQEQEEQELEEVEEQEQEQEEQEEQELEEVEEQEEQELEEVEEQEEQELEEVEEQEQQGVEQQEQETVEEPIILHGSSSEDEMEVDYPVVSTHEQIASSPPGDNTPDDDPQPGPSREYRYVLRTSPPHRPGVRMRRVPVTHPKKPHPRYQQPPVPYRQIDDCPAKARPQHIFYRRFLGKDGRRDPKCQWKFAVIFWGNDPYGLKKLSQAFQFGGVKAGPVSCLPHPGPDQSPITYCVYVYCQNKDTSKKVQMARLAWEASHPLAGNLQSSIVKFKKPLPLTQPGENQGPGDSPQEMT
Vif A3G: HIV-1 Vif–A3G interaction blockers – biochemical, TR-FRET, GST-Vif 1-94, biotin-A3G peptide, dose response retest, primary screen (AID 1117319); inhibition, %; hits with a dose series show IC50 in µM; TR-FRET GST-Vif / biotin-A3G peptide binding; higher % means a stronger effect; test concentration not given here; strong numbers were not always called active; 0.57% of 260,000 active;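 active = above the screen mean plus three standard deviations and confirmed in dose response; inconclusive = results disagree or hit not tested in dose response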;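 note: Vif residues 1-94 fused to GST binding biotinylated APOBEC3G peptide 110-148; 0% = full assay without inhibitor and 100% = GST in place of GST-Vif; retest series ran down from 100 µM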
Starred values were filed as active, the others as inactive; ? = inconclusive; . = not tested or not shown; & = joins results of further samples. No enrichment for hits, and some 6.3% of all compounds hit somewhere here.

SMILES	ALR H2O2 inh	Calb FLC	HNF4A DNA FP	RanGTP-Imp inh	Beta2AR agonist	LANA-H2A inh	Vif A3G
COc1cccc(Nc2nnc(SCC(=O)N3CC(=O)Nc4ccccc43)s2)c1	-1.2	-4.1	1.4	2.3	0.0	1.4	20.2%
COc1cccc(Cn2c(OCC3CCCO3)nc3c2c(=O)n(C)c(=O)n3C)c1 (stereo not given)	-0.3	-7.2	0.9	2.4	-0.3	-2.8	17.9%
Cc1cccc(C)c1OCc1nnc(SCC(=O)Nc2nccs2)o1	-2.8	3.7	1.5	-1.1	-0.1	-5.1	9.5%
CCN1CCN(c2cc(C)c3cc(NC(=S)N4CCC5(CC4)OCCO5)ccc3n2)CC1	-2.4	-9.6	-1.8	2.4	1.3	-1.1	-6.8%
Cc1cc(C)n(C(=O)c2cc3ccccc3c(=O)o2)n1	-14.6	-7.3	-8.8	2.3	-1.1	-2.2	7.2%
CCn1c(Cn2nnc(-c3ccccc3)n2)nnc1SCC(=O)Nc1ccccc1	-1.6	-7.3	-1.1	0.0	-6.2	2.8	21.1%
CC(=O)c1ccc(NC(=O)COC(=O)/C=C/c2cccs2)cc1	9.8	.	2.3	.	-3.3	-5.8	-7.5%
O=S1(=O)CCC(N=Cc2ccc(-c3ccc(Cl)cc3)o2)C1 (stereo not given)	0.4	-6.6	4.1	6.9	11.4	4.1	-1.3%
O=C(OCc1cc([N+](=O)[O-])cc2c1OCOC2)c1ccc2ccccc2n1	1.0	2.3	-3.8	-1.6	-0.8	2.4	1.4%
c1ccc(COC2CCCN(Cc3nc(Cc4ccccc4)no3)C2)cc1 (stereo not given)	-4.8	-0.9	1.4	-0.8	-3.2	-4.7	.
CCOC(=O)[C@@H]1[C@H]2COc3cc(OC)ccc3[C@H]2N2C(=O)N(c3ccc(F)cc3)C(=O)[C@@]12C	0.6	-15.5	-4.5	-0.6	-0.9	-0.3	.
CN(C(=O)c1ccc(NC(=O)Cc2ccc(NC(=O)C3CCN(C(=O)C4CCCC4)CC3)cc2)cc1)C1CC1	1.1	.	-0.9	.	-2.3	-0.7	.
Clc1ccc(Cn2ncc3c(N4CCCC4)ncnc32)cc1	.	12.9	0.9	1.7	-10.6	.	-3.1%
Cn1c(CN2CCN(c3ccc(Cl)cc3)CC2)nc2ccccc21	2.7	-6.5	3.3	-4.6	-12.6	-3.7	5.5%
COc1cc(/C=N\NC(=O)c2ccc(C)nc2)ccc1OC(=O)c1ccco1	1.9	-17.4	-0.5	-1.0	0.3	-5.0	3.5%
O=Cc1cn(CCOc2ccccc2)c2ccccc12	-17.9	-9.1	4.0	-1.9	-15.7	-31.2	-1.5%
CC(C)C(=O)NC(=S)Nc1c(Cl)ccc2nsnc12	.	3.4	2.0	2.6	-0.3	0.4	-4.8%
Cn1c2ccccc2c2c(C(=O)NCCCN3CCCC3=O)cn(C3CCCCC3)c(=O)c21	-7.6	-4.4	2.4	6.0	-4.3	0.7	-2.2%
O=C(O)CC(CC(=O)N1CCN(C(=O)c2ccco2)CC1)c1ccccc1 (stereo not given)	1.7	-20.9	-1.5	-0.9	-3.5	-4.1	.
CC[C@H](C)[C@@H]1NC(=O)c2cc([N+](=O)[O-])cc(F)c2NCCCC[C@@H](C(N)=O)NC(=O)[C@H](CCCCN)NC1=O	.	4.0	1.5	8.6	-5.7	0.7	-2.0%
C#CCOCCOCCOCCNc1nc(N2CCN(C(=O)[C@H]([C@@H](C)O)n3cc(CCCCN)nn3)CC2)nc(N2CCN(C(=O)[C@H]([C@@H](C)CC)n3cc(CCCN=C(N)N)nn3)CC2)n1	-4.2	-4.5	7.1	1.0	1.1	0.0	18.4%
CCCn1cc([C@@H]2C[C@H]3CN(Cc4cccc(Cl)c4)C(=O)[C@]34CCCN24)c(C)n1	0.9	-5.1	-0.7	1.1	5.7	-1.7	-5.3%
O=C(NCCCn1ccnc1)c1cccc(S(=O)(=O)N2CCCCCC2)c1	-0.7	5.8	0.8	1.3	-7.3	-0.9	3.3%
O=c1[nH]nc(N2CCOCC2)c(=O)[nH]1	-8.5	-5.3	-2.6	3.6	4.7	-2.5	8.4%
CC(=O)c1ccc2c(c1)OCCOCCOCCO2	-9.8	-2.9	-6.8	1.5	-0.7	-1.5	-3.4%
NC(=O)C1CCN(C(=O)C2CC(=O)N(Cc3ccccc3)C2)CC1 (stereo not given)	-1.5	.	0.7	.	-1.7	-1.2	3.3%
Cc1ccc(C(CNC(=O)Nc2ccc(Cl)cc2)N2CCN(C)CC2)cc1 (stereo not given)	-18.7	4.7	2.6	-3.5	17.8	1.0	.
O=C(c1cnn2ccccc12)N1CCCc2ccccc21	35.2	-3.7	0.3	1.1	-3.9	11.0	4.2%
COc1ccccc1CCNC(=O)CCSc1nc(-c2ccco2)cc(C(F)(F)F)n1	-14.6	6.4	-1.1	2.4	-13.9	-5.6	3.1%
Cc1ccc(Cl)cc1NC(=O)COC(=O)C1CCCCC1	-5.7	-6.7	-1.0	-2.1	11.1	-5.1	1.4%
CCN1CCN(c2nc(-c3ccccc3)nc3ccccc23)CC1	.	-5.7	-2.4	-1.1	-3.4	3.6	-1.9%
CC(=O)N/N=C/c1cc(C)n(-c2ccc(Br)cc2)c1C	97.6*	-14.9	2.1	-3.4	-31.4	-1.3	5.8%
COc1ccc2sc(-c3ccccc3OC)c(-c3ccc(OC)c(F)c3)c2c1	4.5	.	-3.9	.	10.2	-1.6	.
CCC(C)c1ccccc1NC(=O)c1cc2cccc([N+](=O)[O-])c2[nH]1 (stereo not given)	-8.1	17.2	-0.5	3.5	-6.6	2.2	6.0%
O=C1Oc2ccccc2C(=O)/C1=C/N1CCN(c2ccccc2F)CC1	8.5	-6.8	-1.2	3.7	-3.0	-0.4	-11.4%
CCOC(=O)C1CCN(Cc2ccc(-c3ccccc3)cc2)CC1	9.8	-26.9	-0.6	1.1	1.4	-0.4	.
c1nnc2c3c4c(sc3ncn12)CCC4	45.2	25.0	1.5	-2.4	-10.0	-3.3	6.0%
NC(=O)c1ccc(NC(=O)COC(=O)c2cccc(Oc3ccccc3)c2)cc1	1.4	4.7	7.3	3.6	0.4	2.6	8.7%
CC(C)(C)NC(=O)NC(=O)CN1CCc2ccccc21	-2.3	-2.9	1.9	-1.2	1.6	-4.7	.
CN(C)c1nc(NC(C)(C)C)nc(NC(C)(C)C)n1	.	-15.2	1.2	0.1	16.0	-3.0	?
CC1=C(Nc2ccc(C(=O)O)cc2)C(=O)c2ccccc2C1=O	-37.5	10.4	-0.4	3.7	8.7	2.9	2.5%
COc1ccc(-c2nc(C#N)c(NC(C)C)o2)cc1	6.9	-25.2	2.4	-0.2	-4.1	2.5	-5.7%
O=C1c2ccccc2C(=O)N1CCCCSc1nc2ccccc2c(=O)n1CCCN1CCOCC1	-3.8	-22.4	-3.0	1.0	-12.0	6.1	.
CSCC[C@H](NC(=O)CCCn1nnc2ccccc2c1=O)C(=O)O	-17.3	-0.7	-3.4	0.1	4.3	-5.7	-4.7%
COc1cc(NS(=O)(=O)c2ccc(NC(=S)NC(=O)c3sc4ccccc4c3Cl)cc2)nc(OC)n1	58.2	6.3	2.7	-1.7	-3.6	-5.8	.
Cc1ccc(CNC(=O)C2CCCN(C(=O)N(C)C)C2)cc1 (stereo not given)	-12.1	-7.5	3.2	3.4	4.8	-2.0	2.6%
CN(C)CCN(C(=O)c1ccc(Br)s1)c1nc2cc3c(cc2s1)OCCO3	-22.3	-7.3	-0.4	-1.0	-4.7	3.8	-2.4%
COC(=O)c1c(C)[nH]c(C(=O)C(C)OC(=O)C2CC(=O)N(CCc3ccccc3)C2)c1C (stereo not given)	-2.3	.	-8.4	.	-0.2	-4.9	.

Only Calb FLC, ALR H2O2 inh and RanGTP-Imp inh (two entries from above):
SMILES | Calb FLC | ALR H2O2 inh | RanGTP-Imp inh
c1nnc2c3c4c(sc3ncn12)CCC4 | 25.0 | 45.2 | -2.4
CSCC[C@H](NC(=O)CCCn1nnc2ccccc2c1=O)C(=O)O | -0.7 | -17.3 | 0.1

Carrying on:
SMILES	ALR H2O2 inh	Calb FLC	HNF4A DNA FP	RanGTP-Imp inh	Beta2AR agonist	LANA-H2A inh	Vif A3G
COC(=O)c1ccccc1NC(=O)c1ccc(NC(=O)C2CCCO2)cc1 (stereo not given)	2.4	-6.8	-1.7	3.8	5.1	-5.0	3.9%
CC(=O)Nc1ccc(NC(=O)C2CC(=O)N=C(N)S2)cc1 (stereo not given)	-2.8	-12.4	-2.6	0.2	7.5	-1.3	1.8%
COc1cccc2cc(C(=O)N(Cc3cccs3)CC3CCCO3)c(=O)oc12 (stereo not given)	-14.9	3.9	-3.0	-2.6	17.5	3.2	-8.8%
CCCC(=O)Nc1cc(C)c(NC(=O)C23CC4CC(CC(C4)C2)C3)cn1	-3.8	-3.4	-2.9	3.9	0.4	4.3	-9.2%
O=C(COc1ccccc1Cl)NNC(=O)c1ccc(-n2cncn2)c([N+](=O)[O-])c1	-23.0	.	-3.2	.	1.6	-3.7	-5.8%
COc1ccc(CCNC(=O)CSc2nc3scc(-c4ccccc4)c3c(=O)[nH]2)cc1	28.8	.	-0.3	.	0.6	-5.7	.
CN(C)S(=O)(=O)c1cccc(CNCC2COc3ccccc3O2)c1 (stereo not given)	.	1.0	-1.4	-0.5	2.5	2.9	4.9%
CCOC(=O)c1sc(Nc2ccc(C)cc2C)nc1C	-0.6	8.3	-0.6	-0.6	32.2	-4.6	?
Cc1ccc2[nH]c(C)c(CCNC(=O)c3cc4cc([N+](=O)[O-])ccc4oc3=O)c2c1	9.9	5.7	0.1	1.9	3.4	-3.9	24.1%
CC(Sc1nc2ccccc2c(=O)n1Cc1ccco1)C(=O)c1ccccc1 (stereo not given)	-3.3	-0.9	0.9	-1.0	1.0	-1.0	3.6%
COC(=O)COc1ccc(NC(=O)C(c2ccccc2)c2ccccc2)cc1	-7.7	-0.8	-3.7	0.2	34.9	0.0	.
O=C(/C=C/c1ccc(F)cc1)NC(=S)Nc1ccccc1C(=O)NC1CCCCC1	-3.9	-2.0	-0.8	-6.1	2.3	-4.6	18.5%
Cc1cccc(C)c1N=Cc1c(O)n(-c2nccs2)c(=O)c2ccccc12	-32.8	14.0	1.0	6.1	7.1	-0.2	-0.1%
O=C(c1ccc(CNS(=O)(=O)c2ccccc2)cc1)N1CCN(c2ccccn2)CC1	-0.4	.	-2.1	.	6.7	-5.5	5.2%
CCn1c(C)nc2cc(C(=O)N/N=C(\C)c3ccccc3O)ccc21	6.2	?	-0.8	-2.8	-11.4	-0.2	-3.6%
C[C@@H]1NC(=O)c2cc([N+](=O)[O-])cc(F)c2NCCC[C@@H](C(N)=O)NC(=O)[C@H](CC(N)=O)NC1=O	-11.4	10.8	1.9	?	-2.8	1.6	-4.0%
C/C(=C\c1ccc(N)cc1)c1nc2ccccc2[nH]1	98.9*	-14.6	-0.7	-0.2	1.4	-2.1	-1.9%
CCN(CC)C(=O)CN(C#N)c1nc(Cl)nc(N(C)C)n1	20.4	-11.7	-0.4	-2.8	4.6	-10.4	12.2%
Cc1ccc(OCCOC(=O)CCc2nc3ccccc3c(=O)[nH]2)cc1	-3.8	-6.6	-0.6	0.8	-5.0	0.4	-6.0%
O=C(COC(=O)[C@H](Cc1c[nH]c2ccccc12)NC(=O)c1ccc(Cl)cc1)Nc1ccc2c(c1)OCO2	.	3.1	1.1	0.3	1.4	-1.3	?
COc1ccc(C(=O)Nc2ccc(O)cc2C(=O)O)cc1	.	-17.7	-4.8	0.6	0.3	-10.9	.
CC1=C(C(=O)Nc2ccc(F)cc2)C(c2cccc(C)c2)n2nc(CCCO)nc2N1 (stereo not given)	9.1	-3.1	3.7	1.5	-4.7	1.5	-5.3%&1.6%
